Source: PubChem BioAssay
NPYLR7 ag = activates Aedes aegypti NPYLR7 receptor; HEK293T NPYLR7/Galpha15, GCaMP6s calcium fluorescence; activation, % at 10 µM; actives 0.15% (n = 270,000); AID 1259423; in the data active = activation above about 40%;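 note: 0% = vehicle and 100% = reference agonist at the receptor; some compounds past the cut are filed as inactive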
NPYLR7 ag max-min = recorded beside NPYLR7 ag, whose call it bears; activation, %; measured here: Max-Min RFU normalised activation; some inactives read as strong as hits;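 span of the calcium signal over five minutes; 0% = vehicle and 100% = native peptide agonist; compound fluorescence can raise it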
Starred values were filed as active, the others as inactive; & = joins results of further samples. Some of the compounds tested, so the mix of outcomes need not match the whole.

SMILES	NPYLR7 ag	NPYLR7 ag max-min
O=C(O)c1ccc(/C=C2\SC(=S)N(C(Cc3ccccc3)C(=O)O)C2=O)cc1 (configuration not stated)	20	19
Cc1nc(-c2ccccc2)c(C(=O)NCCSc2nncn2C)s1	19	7
CCNC(=O)C1(C)CCCN(Cc2ccc3c(c2)OCO3)C1 (configuration not stated)	-3	-4
Cc1ccnc(N2CCC(Cc3nn(C)c(=O)n3-c3ccccc3)CC2)n1	-1	-2
Cn1nnc2c(=O)n(Cc3ccccc3F)cnc21	-1	12
CCCN(CC(=O)Nc1cc(C(C)(C)C)nn1-c1ccc(OC)cc1)S(=O)(=O)c1ccc2ccccc2c1	6	-1
CC(=O)O[C@@H](C)C(=O)N1CCN(c2nccc(-c3cccs3)n2)CC1	24	20
O=C(NC1CCCc2ccccc21)C(C1CCCC1)N1CCN(C(=O)C2CC2)CC1 (configuration not stated)	7	8
CC(C)CS(=O)(=O)CCC(=O)N1CC2C(C1)C2(C)C (configuration not stated)	0	44
Oc1oc(-c2ccc(Cl)cc2)nc1C=Nc1ccc(I)cc1	-3	-7
CCC(CNCc1nccn1C)Oc1cccc(F)c1 (configuration not stated)	4	1
CCc1nc2c(OCCC3CCCCC3)cccn2c1N(C)C(=O)c1ccc(C)cc1	-1	7
O=C(NCCCn1ccnc1)c1ccc(Cl)s1	3	2
CN(Cc1cnccn1)Cc1cn[nH]c1-c1ccc(-c2ccccc2)cc1	1	-1
CCC(C)C(NC(=O)c1cccc([N+](=O)[O-])c1)C(=O)Nc1nnc(-c2ccc(F)cc2)s1 (configuration not stated)	-3	10
Cc1cc(C)c(S(=O)(=O)N(CC(=O)N(Cc2ccc3c(c2)OCO3)Cc2ccco2)C(C)C)c(C)c1	-10	-7
O[C@@H]1CN(CCCn2cccn2)CC[C@H]1N1CCN(c2ccccn2)CC1	6	0
Cc1nonc1CN(C)C(=O)CC1C(=O)NCCN1Cc1ccoc1 (configuration not stated)	3	0
CN(Cc1ccc(Br)cc1)c1ccc(S(N)(=O)=O)cn1	1	1
CC(C)SCC(=O)N1Cc2cnc(-c3ccccc3)nc2C1	2	-1
CC(C)CN(CCC(=O)O)c1nc(-c2ccc(F)cc2)nc2cc(Cl)ccc12	-6	2
COc1ccc(-n2nc([N+](=O)[O-])c(=Nc3ccc(C)c(Br)c3)n2O)cc1	1	-3
Cc1cnc(C)c(N2CCN(Cc3nc(-c4ccc(C)o4)oc3C)CC2)n1	-9	-13
Cc1cccc(N(CCN2C(=O)c3ccccc3C2=O)C(=O)c2ccccc2Br)c1	-11	-19
O=C(Cn1ncc2ccccc2c1=O)N(Cc1cccs1)C1CCS(=O)(=O)C1 (configuration not stated)	9	7
Cc1nn(-c2ccccc2)c(C)c1C1C2C(=O)CC(C)(C)CC2=Nc2nnnn21 (configuration not stated)	2	2
CN(Cc1ccco1)C(=S)Nc1ccc2c(c1)OC(F)(F)O2	0	1
COc1cc(NC(=O)Cn2cnc([N+](=O)[O-])n2)cc([N+](=O)[O-])c1	-4	-7
O=C1CCCN1CCNC(=S)Nc1ccccc1	-1	-3
O=S(=O)(c1ccccc1OC(F)(F)F)N1CCN(c2c3c(nc4ncnn24)CCCC3)CC1	-2	-4
c1csc(-c2nc3c(N4CCOCC4)nccc3[nH]2)c1	-4	-11
O=C(c1ccccc1)c1ccccc1Nc1nc(-c2ccccc2)c2cc(Br)ccc2n1	-5	-2
CN1CCC(C(=O)N(CC2CCCCC2)C2CC2)CC1=O (configuration not stated)	10	3
C#CCN(CC=C)C(=O)CC(=O)Nc1ccccc1C	1	-2
CCOc1cccc2c1OC[C@@H]1CN(CC(C)(C)O)C(=O)CCN(C(=O)Cc3cccs3)[C@H]21	-1	0
CN(CCN1CCOCC1)C(=O)c1ccc2oc(-c3ccc(C(F)(F)F)cc3)nc2c1	7	0
O=S(=O)(Nc1cc(C(F)(F)F)[nH]n1)c1ccc2c(c1)OCCCO2	7	7
COc1cc(CSc2c(CC(C)C)cnc3c2c(=O)n(C)c(=O)n3C)cc(OC)c1	7	5
COc1cc(CNc2ccc(C#N)nc2)cc(Br)c1OC	0	13
Cc1cc(CC(C)Nc2nc(CCN)nc3sc(C)c(C)c23)n[nH]1 (configuration not stated)	0	-3
NC(=NN=C1CCCCCC1)SCn1nnc2ccccc2c1=O	6	10
Cc1ccccc1NC(=O)N1CCC2(CC1)SCCN2C(=O)c1ccccc1Cl	-7	1
CCCNC(=O)C1(C)CCCN(Cc2ccccc2F)C1 (configuration not stated)	2	-2
O=C(CC[C@H]1C(=O)OCN1C(=O)OCc1ccccc1)NCCc1c[nH]c2ccc(O)cc12	-6	-11
CC(C)CC(C)OCCC(=O)Nc1ccc(-c2nncn2C)cc1 (configuration not stated)	7	3
Cc1ccc(-c2nnc(NCCN3CCOCC3)c3ccccc23)cc1	0	3
C=CCOCC(O)CN(Cc1ccc2c(c1)OCO2)Cc1ccc(C)o1 (configuration not stated)	24	29
CNc1nc2cnc(Nc3cccc(C(C)=O)c3)cc2n1-c1cccc(F)c1	5	-5

4 of the compounds above, with each value named:
Cc1ccc(-c2nnc(NCCN3CCOCC3)c3ccccc23)cc1
  NPYLR7 ag = 0
  NPYLR7 ag max-min = 3

CCCNC(=O)C1(C)CCCN(Cc2ccccc2F)C1 (configuration not stated)
  NPYLR7 ag = 2
  NPYLR7 ag max-min = -2

CNc1nc2cnc(Nc3cccc(C(C)=O)c3)cc2n1-c1cccc(F)c1
  NPYLR7 ag = 5
  NPYLR7 ag max-min = -5

Cc1cc(CC(C)Nc2nc(CCN)nc3sc(C)c(C)c23)n[nH]1 (configuration not stated)
  NPYLR7 ag = 0
  NPYLR7 ag max-min = -3

New compounds follow
SMILES	NPYLR7 ag	NPYLR7 ag max-min
CC(C)(C)n1nc2c(c1NC(=O)c1cc(Br)ccc1Cl)CSC2	-2	-2
CCCCCOc1ccc(C(=O)NCc2ccncc2)cc1OCCCCC	1	-4
COc1ccc(-c2cc(NC(C)=O)c3ncc(-c4ccccc4)n3c2)c(OC)c1	-5	-10
CS(=O)(=O)c1ccc(-c2ccccc2C(=O)N2CCC3(CC2)OCCCO3)cc1	-7	-15
C#CCOCC(O)CN(Cc1cccc(Cl)c1)CC1CC(c2ccccc2F)=NO1 (configuration not stated)	-2	4
COc1ccc(CNC(=O)Nc2ccc(CN3CCOC3=O)cc2)cc1	9	5
CCOc1ncccc1-c1cnc(C)[nH]1	2	2
CCOC(=O)c1c(NC(=O)CNc2ccccc2N2CCCC2=O)sc2c1CCCC2	-8	9
Cc1ncc(C(=O)NC(Cc2ccccc2)c2ccccc2)s1 (configuration not stated)	11	11
COc1cccc(CN(CC(O)CN2CCOCC2)CC2CC(c3ccc(Cl)cc3)=NO2)c1 (configuration not stated)	-2	3
CCOc1ccc(-n2ccc(=O)c(C(=O)Nc3ccccc3)n2)cc1	0	-3
CN(Cc1cccc(-n2cccn2)c1)C(=O)c1ccc2nc(C3CCCCC3)oc2c1	14	0

7 records picked at random from those above:
SMILES	NPYLR7 ag	NPYLR7 ag max-min
Cc1ncc(C(=O)NC(Cc2ccccc2)c2ccccc2)s1 (configuration not stated)	11	11
CN(Cc1cccc(-n2cccn2)c1)C(=O)c1ccc2nc(C3CCCCC3)oc2c1	14	0
CS(=O)(=O)c1ccc(-c2ccccc2C(=O)N2CCC3(CC2)OCCCO3)cc1	-7	-15
CC(C)(C)n1nc2c(c1NC(=O)c1cc(Br)ccc1Cl)CSC2	-2	-2
CCCCCOc1ccc(C(=O)NCc2ccncc2)cc1OCCCCC	1	-4
C#CCOCC(O)CN(Cc1cccc(Cl)c1)CC1CC(c2ccccc2F)=NO1 (configuration not stated)	-2	4
COc1ccc(CNC(=O)Nc2ccc(CN3CCOC3=O)cc2)cc1	9	5

Next section
SMILES	NPYLR7 ag	NPYLR7 ag max-min
Cc1ccc(Cc2nc(N3CCN(C(=O)c4cc(Cl)cc(Cl)c4)CC3)c3c(-c4cccnc4)noc3n2)cc1	20	4
CC(C)CN1CC(OCc2cccc(F)c2)CN(C(=O)c2ccoc2)CC1=O (configuration not stated)	11	4
CCc1c(C)nc(-c2cccc(C(F)(F)F)c2)nc1N1CCN(C(=O)C2CC2)CC1	26	31
CCOC(=O)C1CCN(C(=O)CCC(=O)c2ccc(SC)cc2)CC1	-7	-12
Cc1cc(C)c(S(=O)(=O)N2CCc3nc(-c4ccccc4)nc(N4CC(C)OC(C)C4)c3C2)c(C)c1 (configuration not stated)	27	29
Brc1ccc(-c2cn3c4c(sc3n2)CCCC4)cc1	-5	-7
COCCOC(=O)C1=C(C)NC(C)=C(C(=O)OCCOC)C1c1ccc(-c2ccc(Cl)cc2Cl)o1	-6	-12
O=C(CN1CCOCC1)N1N=C(c2cccs2)CC1c1ccco1 (configuration not stated)	7	14
Cc1noc(C)c1CN(C)CC(O)c1ccc(S(C)(=O)=O)cc1 (configuration not stated)	2	-1
Cc1nn(-c2nc3ccccc3[nH]2)c2c1C(=O)CC(c1ccccc1O)C2 (configuration not stated)	6	5
CCc1nc2ccc(C(=O)NCCc3ccccn3)cn2c1N(C)C(=O)COc1ccccc1	-4	-9
COc1ccc2nc(N(Cc3ccccn3)C(=O)c3cc(C)on3)sc2c1	3	1
Cc1ccn2c(=O)nc(SCc3ccc(Br)cc3)nc2c1	5	5
CCc1nc2ccc(C(=O)Nc3cc(-c4ccccc4)ccc3OC)cn2c1N(CC)Cc1cccc(Br)c1	10	10
COc1ccc(-n2c(=O)[nH]c3c(C(N)=O)nc(-c4ccncc4)nc32)c(OC)c1	2	-1
O=C(O)C1CC(=O)N(CCCn2cncn2)C1 (configuration not stated)	-4	-8
COc1ccc(Oc2cnn(-c3ccc(Cl)cc3)c(=O)c2Nc2ccc(C(=O)N3CCCC3)cc2)cc1	8	12
CN(CC(=O)Nc1ccccc1C#N)Cc1cccc(F)c1	-23	-27
FC(F)(F)c1ccccc1CCC1CCCN(Cc2ncc[nH]2)C1 (configuration not stated)	12	10
COCCNC(=O)NC(=O)CN1CCCC1c1cc(C)on1 (configuration not stated)	1	-3
COCC(=O)Nc1ccc(N2CCN(C(=O)c3sccc3Cl)CC2)nc1	3	-4
Cc1nn(C(=O)c2cccs2)c(C)c1Sc1ccccc1	2	2
C=CCNC(=O)Nc1ccc(NC(=O)N(C)CC2CCC2)cc1	-6	-6
COCCCn1c(SCc2ccc(/C=C/c3ccccc3)cc2)nnc1-c1cc(-c2ccccc2)nc2ccccc12	-6	-9
CCCn1c(SCC(=O)c2cc(C)n(C3CC3)c2C)n[nH]c1=O	2	9
COc1ncccc1C(=O)N1CCC2(CCCN(CC3CCCCC3)C2)C1 (configuration not stated)	2	2
O=C(c1ccccc1Nc1cccc(C(F)(F)F)c1)N1CCC1	-22	-26
Cc1nc(C)c(CCC(=O)Nc2nc(-c3ccc(Br)cc3)c(C)s2)c(=O)[nH]1	1	-1
CCC(=O)N1CCC(n2c(C)nc3ccc(C)cc32)CC1	6	3
COc1ccccc1N1CCN(C(=O)CN2CC3=C(C2=O)C(c2cccc(OC)c2OC)NC(=O)N3C)CC1 (configuration not stated)	2	15
COC(=O)C1C(=O)C(=C(O)/C=C/c2ccco2)C(=O)CC1(C)C (configuration not stated)	5	4
Cc1nc(-c2cccnc2)ncc1C(=O)N1CCCC(CCc2ccc(F)cc2)C1 (configuration not stated)	4	3
CC(=O)c1sc2nc(CSc3nnnn3Cc3cccs3)[nH]c(=O)c2c1C	3	3
Cc1nn(C(C)(C)C)c(OC(=O)C2CC2)c1S(=O)(=O)c1ccccc1	0	33
Cc1cccc(-c2nnc(NC(=O)C(NC(=O)Nc3ccc(F)cc3F)C(C)C)s2)c1 (configuration not stated)	20	22
Cc1cc(NC(=O)Cc2ccccc2)n(-c2ncnc3c2cnn3-c2ccc(C)c(C)c2)n1	10	11
Cc1ccccc1Cn1c(C(=O)N2CCN(C(=O)Cc3cccs3)C(C)C2)cc2ccsc21 (configuration not stated)	-1	5
Cn1ccnc1C(=O)c1cc(=S)[nH]c2ccccc12	9	10
COc1cccc(C2CCCN2C(=O)c2cn(C3CCCCCC3)nn2)c1 (configuration not stated)	2	-6
O[C@H]1Cc2ccccc2[C@H]1Nc1ncccc1C(F)(F)F	-24	-24
COc1cc(C(=O)N2CCC(C(C)O)CC2)ccc1OC(C)C (configuration not stated)	-3	-1
CCc1[nH]n(-c2ccc(F)cc2)c(=O)c1C1=C([n+]2ccccc2)C(=O)N(c2ccc3c(c2)OCO3)C1=O	6	2
O=C(NOC(=O)c1ccc(F)cc1)c1ccc(OC(F)F)cc1	-2	-8
CCN(CC)S(=O)(=O)c1cc(C(=O)O)n(C)c1	4&2	12&3
CO[C@@]1([Si](C)(C)C)CCCCC1O (some centres not stated)	-6	-7
COc1ccc(CC(=O)NCCNc2ccc(Nc3cc(C)ccn3)nn2)cc1	8	-1
